# High-throughput results from PubChem.
# Marburg entry inh – qHTS for inhibitors of binding or entry into cells for Marburg Virus. Marburg virus pseudotyped entry inhibition, cell reporter; control for the full effect not named in the record; about a third of the inactives were read at about 46 µM. Potency, µM (series often up to 37.8 µM), for the others: at the top dose activity change, negative = inhibition, usual class: inhibitors. 300,000 compounds, 1.8% hits; active = well fitted inhibition curve with a large enough effect; inconclusive = small, poorly fitted or top-dose-only effect, or effect the other way; inactive = flat fitted curve, though single readings scatter; tested in HEK293 cells; about a fifth of its hits are not listed in these tables; note: % is set by controls: 0 for no effect and ±100 for the full control effect; luciferase read-out
# Cruzain noTriton – qHTS Assay for Promiscuous and Specific Inhibitors of Cruzain (without detergent). purified cruzain, Z-FR-AMC fluorescence, no detergent. Potency, µM, for inactives: max response, negative = inhibition, most hits filed as inhibitors. 200,000 compounds, 2.3% hits. AID 1476, 2009; active = well fitted curve in the direction sought with a large enough effect; inconclusive = small, poorly fitted or top-dose-only effect, or another doubt; inactive = no such curve, though single readings can be large; an effect the other way counts as inactive or inconclusive;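 note: plate controls were enzyme without inhibitor for no effect and buffer without enzyme for full effect; nearly all actives have a fitted effect of over 40% in size; top concentration of the series not given in the record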
# Target sequence (P25779 123-467 limits assumed): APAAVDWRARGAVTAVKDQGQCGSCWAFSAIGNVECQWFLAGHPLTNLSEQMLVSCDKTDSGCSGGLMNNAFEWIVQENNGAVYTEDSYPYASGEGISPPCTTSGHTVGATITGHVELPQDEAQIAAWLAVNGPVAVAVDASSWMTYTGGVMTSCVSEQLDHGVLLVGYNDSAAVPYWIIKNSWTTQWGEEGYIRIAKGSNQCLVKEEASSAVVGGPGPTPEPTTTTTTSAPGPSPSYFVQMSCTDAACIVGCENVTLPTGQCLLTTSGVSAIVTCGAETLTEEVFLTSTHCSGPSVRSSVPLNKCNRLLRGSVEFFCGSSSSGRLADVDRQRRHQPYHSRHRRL
#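 Detergent-free condition (0.00005% Triton X-100) in acetate buffer pH 5.5 with DTT. 1.5 nM enzyme and compound were pre-mixed 15 min, then 2 uM Z-FR-AMC substrate added; reaction progress from fluorescence change between first and third reads (60 s).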
# RE007 growth inh – qHTS Assay for Inhibitors of the HIV-1 protein Vpr; S. pombe RE007 Vpr strain, BacTiter-Glo ATP luminescence, 24 h; control for the full effect not named in the record; Potency, µM (titrated, usually from 92.2 µM), for the others: at the highest dose activity change, negative = less growth; 360,000 compounds, 0.21% hits; active = well fitted falling curve with a large enough effect; inconclusive = small, poorly fitted or top-dose-only effect; inactive = no such curve, though single readings can be large or run the other way;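 note: % is set by controls: 0 for no effect and ±100 for the full control effect; nearly all actives have a fitted effect of over 50% in size; the assay follows cell death caused by Vpr and the record does not say whether a fall means rescue or toxicity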
#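 Fission yeast strain RE007, carrying one chromosomally integrated HIV-1 vpr copy, was seeded at OD 0.01 in PMG+AL medium with 23 nL pinned compound. After 24 h at 30 °C and 99% humidity, viability was read by BacTiter-Glo luminescence.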
# SARS PLP yeast – qHTS of Yeast-based Assay for SARS-CoV PLP; 330,000 compounds, 0.19% hits; S. cerevisiae expressing SARS-CoV PLpro, growth rescue; control for the full effect not named in the record; AID 485353, 2010; Potency, µM (doses to about 32.9 µM), for the others: top-dose activity, positive = growth rescue; note: 0% is about no effect; nearly all actives have a fitted effect of over 55% in size; growth read by luminescence after 48 h
# LASV entry inh – qHTS for Inhibitors of binding or entry into cells for Lassa Virus; Lassa virus pseudotype entry inhibition, cell reporter; control for the full effect not named in the record; 300,000 compounds, 1.2% hits; Potency, µM (top dose mostly 37.9 µM), for the others: at the highest dose activity change, negative = inhibition, hits mostly inhibitors; active means well fitted inhibition curve with a large enough effect; inconclusive means small, poorly fitted or top-dose-only effect, or effect the other way; inactive means flat fitted curve, though single readings scatter; tested in HEK293 cells; note: % is set by controls: 0 for no effect and ±100 for the full control effect; nearly all actives have a fitted effect of over 50% in size; luciferase read-out
# Cruzain inh Det – qHTS Assay for Promiscuous and Specific Inhibitors of Cruzain (with detergent); Cruzipain (Trypanosoma cruzi), P25779; purified cruzain, Z-FR-AMC fluorescence, 0.01% Triton; Potency, µM, without a hit: max response, negative = inhibition, usual class: inhibitors; 200,000 compounds, 0.43% hits; AID 1478, 2009; active = well fitted curve in the direction sought with a large enough effect; inconclusive = small, poorly fitted or top-dose-only effect, or another doubt; inactive = no such curve, though single readings can be large; an effect the other way counts as inactive or inconclusive;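 note: plate controls were neutral wells for no effect and buffer without enzyme for full effect; nearly all actives have a fitted effect of over 40% in size; top concentration of the series not given in the record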
#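 Detergent-containing arm of a paired screen for aggregation-based inhibition: 0.01% Triton X-100 present. Cruzain at 1.5 nM cleaved 2 uM Z-FR-AMC at pH 5.5 with 5 mM DTT; AMC fluorescence gain over 60 s measured activity.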
# NS1 inh – qHTS Assay for Inhibitors of Influenza NS1 Protein Function; S. cerevisiae slowed by influenza A NS1, growth recovery by OD600; Potency, µM (series often up to 46.1 µM), without a hit: top-dose activity, positive = more growth; 270,000 compounds, 0.4% hits; note: actives are rising curves; nearly all actives have a fitted effect of over 50% in size
#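 Read-out: OD600 growth recovery of NS1-expressing budding yeast. Cells grown overnight at 30C in -URA glucose medium, washed, resuspended and diluted 1:100 in 2% galactose assay medium, pH 6.0. Same strain lacking NS1 served as positive control.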
# StopGo reporter – High Throughput Screening for Foot and Mouth Disease Virus Antivirals | human cells with a luciferase reporter of 2A StopGo recoding; control for the full effect not named in the record | Potency, µM (highest dose often 57.9 µM), for the others: at the top dose signal change, negative = less light | 410,000 compounds, 1.2% hits; active = well fitted falling curve with a large enough effect; inconclusive = small, poorly fitted or top-dose-only effect; inactive = no such curve, though single readings can be large or run the other way; tested in HEK293T cells; note: % is set by controls: 0 for no effect and ±100 for the full control effect; nearly all actives have a fitted effect of over 45% in size; luciferase light after 4 h
# An asterisk follows results filed as active; ? = inconclusive; . = not tested or not shown; & = joins results of further samples; [ ] = another dose, or the depositor's remark. Unless noted, calls come from the whole dose curve; as a rule, active means well fitted rising curve with a large enough effect; inconclusive means small, poorly fitted or top-dose-only effect; inactive means no such curve, though single readings can be large or run the other way. Potency is the fitted concentration of half-maximal effect.
SMILES,Marburg entry inh,Cruzain noTriton,RE007 growth inh,SARS PLP yeast,LASV entry inh,Cruzain inh Det,NS1 inh,StopGo reporter
CN(CC(=O)Nc1ccccc1Br)C(=O)CN1CCN(c2ccccc2Cl)CC1,?,.,-1.9%,-0.2%,3.3%,.,.,-21.6%
COc1cccc(C2C(C(=O)c3ccco3)=C(O)C(=O)N2CCN(C)C)c1OC (centres undefined),24.9%,-0.9%,5.7%,-10.5%,-2.0%,-5.4%,2.8%,-19.7%
CC(=O)Nc1ccccc1NC(=O)c1cc(C)ccc1C,3.0%[46.1 µM],.,8.1%,-0.7%,25.3%,.,5.6%,10.9%
CCN(CC)CCN1C(=O)c2ccccc2NC1c1ccccc1F (centres undefined),-1.4%,-15.6%,-3.6%,-6.1%,13.4%,-3.9%,7.3%,.
Cc1ccc(CNC(=O)c2ccc(Cn3c(=O)c4ccccc4n(CC(=O)Nc4ccc(C)cc4)c3=O)cc2)cc1,4.4%[46.1 µM],-13.6%,.,.,-4.6%[46.1 µM],-2.2%,.,-4.0%
CC(C)NC(=O)CCS(=O)(=O)c1ccc(Br)s1,?,-0.9%,13.1%,1.4%,16.2%,5.1%,-4.5%,3.5%
O=C(O)/C=C/C(=O)Nc1cccc2cccnc12,.,.,15.8%,2.0%,.,.,8.0%,0.0%
Cc1c(C(=O)c2ccccc2)c2ccccn2c1CCC#N,.,.,-0.7%,-4.2%,.,.,-8.6%,-12.0%
CC(C)Cn1c(-c2csc3c2CCCC3)n[nH]c1=S,-5.8%,-2.1%,0.5%,-3.1%,4.4%,-3.8%,-66.3%,?
[2H]C(CCOS(N)(=O)=O)c1ccccc1 (centres undefined),.,.,-7.3%,2.8%,.,.,-2.3%,?
O=C(CN1C(=O)C2CCCCC2C1=O)Nc1cccc([N+](=O)[O-])c1 (centres undefined),?,.,32.2%,3.2%,23.5%,.,.,-1.3%
CCOC(=O)c1ccc(NC(=O)c2nc(SC(C)C)ncc2Cl)cc1,15.6%[46.1 µM],-7.1%,.,.,?,-7.5%,.,1.7%
COc1ccc(NC(=O)Cc2nnc(SCC(=O)Nc3ccccc3)n2C)cc1,3.6%[46.1 µM],.,1.6%,-1.7%,-17.9%,.,8.0%,25.7%
CCN(Cc1nc(-c2ccccc2)no1)C(=O)c1ccc2c(c1)OCO2,-0.4%[46.1 µM],.,11.4%,0.4%,-20.0%[46.1 µM],.,3.0%,-11.0%
COc1nc(OC)nc(N2CCC(C(=O)Nc3cccc4c3CCCC4)CC2)n1,-23.3%,-5.1%,0.0%[3.69 µM],-9.9%,12.8%,3.2%,-5.0%,3.7%
COc1ccc(-n2c3c(c(=O)[nH]c2=O)C(NC(=O)c2ccccc2Cl)(C(F)(F)F)C(=O)N3)cc1 (centres undefined),1.1%[46.1 µM],-8.2%,.,.,5.7%[46.1 µM],-1.3%,.,-9.8%
O=C(NC(=S)Nc1c(Cl)ccc2nsnc12)c1ccco1,11.0%,-12.9%,-7.2%,3.8%,-23.8%,-8.3%,16.4%,-14.1%
COCCNc1nc2c(c(=O)n(Cc3cccc(Br)c3)c(=O)n2C)n1C,-1.9%[46.1 µM],7.5%,2.2%,-1.1%,11.0%&9.4%[46.1 µM],0.5%,-4.5%,-7.1%&-16.1%
O=C(c1csc2c1CCCC2)N1CCN(c2ncccn2)CC1,2.6%,-5.3%,6.9%,-2.7%,-1.2%,2.2%,0.4%,8.5%
Nc1nc(-c2cc(-c3ccccc3)no2)cs1,.,.,?,-11.1%,.,.,-110.6%,15.2%
O=C(NC(Cc1ccccc1)C(=O)O)/C(=C\c1ccco1)NC(=O)c1ccco1 (centres undefined),?,.,2.7%,1.4%,-9.7%,.,3.6%,-14.2%
COc1ccc(N2CCN(C(=O)c3nn(C)c4c3CS(=O)(=O)c3ccccc3-4)CC2)cc1,.,2.9%,10.7%,2.6%,?,-1.1%,4.8%,-20.1%&-28.0%
CCN(CC)C(=O)C1CCN(CC2CC=CCC2)CC1 (centres undefined),-24.4%,5.7%,-13.3%,5.9%,11.5%,3.7%,-2.9%,1.5%
CC1CCCCN1Cc1c(C#N)c2ccccc2n1C (centres undefined),-25.6%,-9.1%,20.2%,.,-5.3%,4.3%,8.6%,-14.1%
CCOc1ccc(OCC)c(NC(=O)CN2CCN(c3cc(C)ccc3C)CC2)c1,?,-7.5%,-2.5%,-1.7%,-29.0%,3.3%,-75.7%,.
Cc1ccc(C)c(S(=O)(=O)N2CCCC2CNC(=O)C(=O)NCc2ccccc2C)c1 (centres undefined),?,.,10.3%,-0.9%,-19.3%,.,.,-18.2%
COc1ccc(C(=O)CCNc2ccc(F)cc2)cc1,21.8%,.,-5.4%,-0.2%,8.9%,.,-6.1%,53.8%[activator]
O=C(NCc1ccc(F)cc1)c1cc2ccccc2o1,6.3%[46.1 µM],.,8.7%,-3.2%,4.5%[46.1 µM],.,-10.6%,28.5%
Cn1nccc1C(=O)OCC(=O)Nc1ccccc1,-5.2%[46.1 µM],.,9.7%,-4.4%,4.8%[46.1 µM],.,-4.5%,23.6%
CCc1ccccc1NC(=O)Cn1nnc(C(=O)NCc2ccccc2Cl)c1N,.,-29.8%,.,.,13.3%[46.1 µM],1.2%,.,1.5%
Cn1c(SCC(=O)N/N=C/c2ccco2)nc2ccccc21,.,.,1.6%,-0.3%,.,.,4.0%,-5.8%
CCC(NC(=O)c1ccc2nc(Cc3ccc(OC)cc3)oc2c1)c1ccncc1 (centres undefined),.,.,-9.7%,0.2%,.,.,-1.4%,20µM*
Cc1n[nH]c(=O)nc1NC(C)c1ccccc1 (centres undefined),?,-2.7%,3.0%,-2.5%,-13.4%,1.8%,2.4%,2.8%
Cc1ccccc1NS(=O)(=O)c1ccc(NC(=O)c2nc3ncccn3n2)cc1,12.9%,-10.5%,-2.1%,10.8%,?,0.2%,?,.
CCCC(=O)N1c2ccc(-c3csc(N)n3)cc2CC1C (centres undefined),-0.6%,-1.8%,-22.1%,-11.2%,?,-2.8%,-46.4%,18.6%
CCOC(=O)C(=N/O)/C(C)=N/NC(=O)C(=O)Nc1ccc(Cl)cc1,.,.,-10.0%,-0.1%,.,.,2.4%,?
Cc1cc(C(=O)COC(=O)COc2ccc(C#N)cc2)c(C)n1C1CC1,0.6%,.,14.6%,.,27.8%,.,.,-13.4%
Clc1ccc(Oc2nnnn2-c2ccccc2)cc1,-3.4%,0.0%,?,-2.6%,-1.0%,0.4%,-9.0%,25.3%
O=C(CCN1CCCCC1)Nc1cccc(Br)c1,.,.,0.3%,-1.9%,.,.,18.1%,-11.1%
CCOC(=O)C1(Cc2ccccc2)CCN(Cc2cnc(N3CCOCC3)s2)CC1,?,.,-0.1%,0.2%,-4.1%,.,-3.5%,0.0%
Cc1c(C=Nc2ccc(S(=O)(=O)CCO)cc2)c(O)[nH]c(=O)c1C#N,13.1%[46.1 µM],.,1.0%,.,0.5%[46.1 µM],.,.,28.6%
CN(C)S(=O)(=O)c1cccc2c1C(=O)c1ccccc1C2=O,-9.9%,-22.7%,-8.6%,9.8%,-2.6%,-5.6%,7.2%,-10.5%
COC(=O)c1nnn(-c2cccc(C)c2)c1N,-15.0%[46.1 µM],13.7%,.,.,3.6%[46.1 µM],0.7%,.,-7.1%
CC#CCCCC(=O)Nc1ccccc1C(=O)O,20.5%,-0.1%,12.9%,0.4%,6.6%,4.1%,7.7%,4.2%
Cc1ccc(CSc2nc3ccncc3[nH]2)cc1,.,-3.6%,?,-19.9%,.,-1.2%,-5.4%,10µM*
O=C(CSc1nnc(-c2cccs2)n1Cc1ccco1)c1ccc2c(c1)OCO2,?,-4.2%,0.3%,11.2%,21.0%,-3.5%,-35.2%,-9.8%
Cc1cc(C)c(C(=O)/C=C/c2ccco2)c(=O)[nH]1,1.9%[46.1 µM],.,12.7%,0.6%,-7.3%,.,-0.8%,27.3%
Cc1nc(N2CCOCC2)nc2c1CCCC2,4.5%,0.0%,?,3.5%,3.9%,-2.2%,-6.3%,13.2%
O=S(=O)(c1ccc(Cl)cc1)c1nnn2c1nc(NCc1ccc3c(c1)OCO3)c1sccc12,.,2.7%,.,.,21.4%[46.1 µM],0.0%,.,0.0%
CCOc1ccc(Cn2c(CNS(=O)(=O)c3cccs3)nc3cccnc32)cc1,.,14.1%,.,.,3.9%[46.1 µM],-1.9%,.,40.1%[activator]
# Next structures:
SMILES,Marburg entry inh,Cruzain noTriton,RE007 growth inh,SARS PLP yeast,LASV entry inh,Cruzain inh Det,NS1 inh,StopGo reporter
Cc1cc(C)cc(OCC(=O)NCc2nc(-c3ccccc3)no2)c1,15.5%,22.7%,12.3%,2.2%,8.1%,-3.8%,-61.2%,.
Cc1c(C(=O)NCc2ccc(Cl)cc2)sc2nc3n(c(=O)c12)CCCCC3,.,-28.4%,.,.,12.0%[46.1 µM],-6.2%,.,-5.5%
O=C(N/N=C/C(Br)=C/c1ccccc1)NC1CCCCC1,-23.0%[46.1 µM],.,?,-5.1%,-16.2%[46.1 µM],.,0.5%,29.1%
O=c1ccc2cc3c(-c4ccccc4)coc3cc2o1,?,.,-12.9%,-1.2%,-15.1%,.,0.9%,3.5%
COC(=O)[C@@H]1CCCN1Cc1nc(Cc2ccc(OC)c(OC)c2)no1,-9.0%[46.1 µM],.,-16.0%,0.0%,17.4%[46.1 µM],.,1.8%,1.3%
COC(=O)c1sccc1NC(=O)Nc1ccc(F)cc1,.,.,?,-14.9%,.,.,-32.8%,62.3%[activator]
CCn1c(O)c(N=NC(=O)Cn2ccc(C(F)(F)F)n2)c2ccccc21,?,22.6%,-8.1%,-31.7%,15.7%,-6.7%,-9.3%,-13.1%
COC(C(=O)Nc1ccc(Br)cc1F)c1ccccc1 (centres undefined),.,.,-20.3%,-1.4%,.,.,-0.1%,-5.9%
